# ClpP mod: qHTS Assay for Activators of ClpP; ATP-dependent Clp protease proteolytic subunit (Bacillus subtilis (strain 168)), P80244; purified B. subtilis ClpP, FRET peptide cleavage, 20 min; Potency, µM (doses to about 57.5 µM), for inactives: at the highest dose activity change, negative = active; 340,000 compounds, 1.9% hits; active = well fitted falling curve with a large enough effect; inconclusive = small, poorly fitted or top-dose-only effect; inactive = no such curve, though single readings can be large or run the other way; further: potency means the concentration at half of the fitted maximal effect; the source files actives as falling curves though it sought activators and does not explain the sign; nearly all actives have a fitted effect of over 65% in size; many hits overshoot -100%
# Target sequence (P80244 whole entry, looked up): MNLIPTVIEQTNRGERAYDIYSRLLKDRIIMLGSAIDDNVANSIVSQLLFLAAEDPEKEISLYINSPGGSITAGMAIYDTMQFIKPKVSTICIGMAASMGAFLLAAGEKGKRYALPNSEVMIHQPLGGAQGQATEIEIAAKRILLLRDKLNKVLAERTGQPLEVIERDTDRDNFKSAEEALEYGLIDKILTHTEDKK
#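 Buffer: 100 mM Tris/HCl pH8, 100 mM KCl, 0.05% low protease BSA, 2.5% glycerol, 0.01% Tween-20. ClpP 10 microg/mL final; 20 min RT; delta FRET normalized to ADEP and DMSO controls.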
# CtBP-E1A inh: qHTS Assay for Inhibitors of the CtBP/E1A Interaction. CtBP / adenovirus E1A interaction (AlphaScreen). AlphaScreen GST-E1A/His-CtBP binding, 1536-well; hits give low values; control for the full effect not named in the record. activity change, % (concentration not given with the values). 340,000 compounds, 0.49% hits. AID 651724, 2012; in the data active means activity change below about -65%; inconclusive means about -30% to -65%; inactive means above about -30%; further: on the % scale 0 is the no-effect control and ±100 the full control effect
#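 Steps: dispense buffer (Tris pH 8.0, NaCl 300 mM, TCEP 1 mM, BSA, Tween 20); add 5X protein mix (GST-E1A, His-CtBP, 125 nM each); pin 23 nL compound; 2 h at 37 °C, dark; add 5X beads (50 ug/mL); 1 h; read.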
# * marks the source's active call; other numbers are inactive results; ? = inconclusive.
# Preview, 12 compounds:
SMILES,ClpP mod,CtBP-E1A inh
COc1c(C)cc(C(O)c2ncc(-c3cccc(C(F)(F)F)c3)[nH]2)cc1C (stereo unspecified),-7.8%,-22
CCCCC[C@H](C)N1C[C@H](COCc2ccccc2)Oc2cc(N3CC[C@H](N(C)C)C3)ccc2S1(=O)=O,-4.8%,-7
COc1cccc(CNc2nc3cc(-c4cccc(C(F)(F)F)c4)sc3c(=O)n2C)c1,?,2
O=C(NCc1ccco1)c1ccc2sc([C@@H]3O[C@H](CO)[C@H](O)[C@H](O)[C@H]3O)nc2c1,0.9%,4
CSCCC(C(=O)Nc1c(C)cccc1C)N1CCC(Cc2ccccc2)CC1 (stereo unspecified),-4.9%,-22
c1ccc2c(C(c3nnnn3-c3ccc4c(c3)OCCO4)N3CCOCC3)ccnc2c1 (stereo unspecified),1.3%,6
CCCNC(=O)C1(C)CCCN(C(=O)c2cccc(C#N)c2)C1 (stereo unspecified),0.0%,9
Clc1ccccc1Nc1nc(NCc2ccccc2)nc2ccsc12,5.1%,-17
Cc1cccc(-c2cnc(C(O)c3ccc4ccccc4c3)[nH]2)c1 (stereo unspecified),-2.6%,-28
COC(=O)[C@@]1(Cc2ccc(F)cc2)[C@H]2c3cc(C(=O)N4CCCC4)n(C)c3C[C@H]2CN1C(=O)c1ccccc1,-2.6%,-13
C[C@@H]1CN([C@H](C)CO)C(=O)CCCn2cc(nn2)CO[C@H]1CN(C)C(=O)c1ccc(N2CCN(C)CC2)cc1,-5.3%,-23
OC(c1ccc(F)cc1)c1nc(-c2ccc(F)c(Cl)c2)cs1 (stereo unspecified),-0.6%,0

# The list itself (from the top)
SMILES,ClpP mod,CtBP-E1A inh
COc1c(C)cc(C(O)c2ncc(-c3cccc(C(F)(F)F)c3)[nH]2)cc1C (stereo unspecified),-7.8%,-22
CCCCC[C@H](C)N1C[C@H](COCc2ccccc2)Oc2cc(N3CC[C@H](N(C)C)C3)ccc2S1(=O)=O,-4.8%,-7
COc1cccc(CNc2nc3cc(-c4cccc(C(F)(F)F)c4)sc3c(=O)n2C)c1,?,2
O=C(NCc1ccco1)c1ccc2sc([C@@H]3O[C@H](CO)[C@H](O)[C@H](O)[C@H]3O)nc2c1,0.9%,4
CSCCC(C(=O)Nc1c(C)cccc1C)N1CCC(Cc2ccccc2)CC1 (stereo unspecified),-4.9%,-22
c1ccc2c(C(c3nnnn3-c3ccc4c(c3)OCCO4)N3CCOCC3)ccnc2c1 (stereo unspecified),1.3%,6
CCCNC(=O)C1(C)CCCN(C(=O)c2cccc(C#N)c2)C1 (stereo unspecified),0.0%,9
Clc1ccccc1Nc1nc(NCc2ccccc2)nc2ccsc12,5.1%,-17
Cc1cccc(-c2cnc(C(O)c3ccc4ccccc4c3)[nH]2)c1 (stereo unspecified),-2.6%,-28
COC(=O)[C@@]1(Cc2ccc(F)cc2)[C@H]2c3cc(C(=O)N4CCCC4)n(C)c3C[C@H]2CN1C(=O)c1ccccc1,-2.6%,-13
C[C@@H]1CN([C@H](C)CO)C(=O)CCCn2cc(nn2)CO[C@H]1CN(C)C(=O)c1ccc(N2CCN(C)CC2)cc1,-5.3%,-23
OC(c1ccc(F)cc1)c1nc(-c2ccc(F)c(Cl)c2)cs1 (stereo unspecified),-0.6%,0
COc1ccc(C(C)(O)c2nc(-c3cnc4ccccc4c3)cs2)cc1 (stereo unspecified),-21%,-1
CC(C)C[C@@H]1CN(CCCC[C@H]2CNC(=O)C(=O)N2CCC2CCCCC2)C(=O)C(=O)N1CCc1ccc(O)cc1,2.4%,2
COc1cc(NC(=O)c2ccc(-c3cccnc3)c3ccoc23)cc(OC)c1OC,?,-30
CC1(C(=O)NCc2cccs2)CCN1C(=O)Cc1cccc2ccccc12 (stereo unspecified),-2.7%,2
COCCNC(=O)C1(C)CCCN(C(=O)c2ccco2)C1 (stereo unspecified),-1.7%,3
O=[N+]([O-])c1ccc(Br)c(CN2CCN(c3ncc(Cc4ccccc4)cn3)CC2)c1,1.6%,-17
CCOC(=O)[C@]12CCCC=C1N(Cc1ccco1)C(=O)[C@H](CC(=O)N1CCOCC1)C2,3.4%,10
CC(=O)c1ccc(-c2cnc3c(NC=O)cc(-c4ccc(C(=O)N5CCOCC5)cc4)cn23)cc1,-17%,-11
CCCNC(=O)C1(C)CCCN(C(=O)Cc2cccc(OC)c2)C1 (stereo unspecified),-2.5%,-17
O=C(c1[nH]c(C(F)(F)F)nc1-c1ccccc1)N1CCCCC1,-3.4%,2
CCCCc1c(-c2ccc(OC)c(OC)c2)ncn1CCc1ccccc1OC,-29%,-9
CCCCNC(=O)C1(C)CCN1C(=O)c1ccncc1 (stereo unspecified),0.8%,2
O=C(c1[nH]c(C(F)(F)F)nc1-c1ccccc1)N1CCC2(CC1)C(=O)NCN2c1ccccc1,-0.1%,-10
CC1(C(=O)NS(=O)(=O)c2cccc(F)c2)CCN1C(=O)Cc1cccc2ccccc12 (stereo unspecified),3.9%,9
O=C(/C=C/[C@H]1O[C@@H](n2cnc3c(NC(=O)c4ccccc4)ncnc32)[C@H](O)[C@@H]1O)N[C@@H](CO)Cc1c[nH]c2ccccc12,-0.5%,5
COc1cccc(-c2cc3nc(NCCCN(C)C)n(C)c(=O)c3s2)c1,3.8%,8
CCCc1nc2cc(C)c(Br)c(C)n2c1Cc1ccsc1,-5.2%,5
COCOc1ccc(-c2ncc(OC)nc2NC(=O)c2cc(C)oc2C)cc1,4.4%,-17
CCNC(=O)C1(C)CCCN(Cc2cccc3c(OC)cc(C(=O)OCC)cc23)C1 (stereo unspecified),-15%,2
Nc1nc2ncccn2c1-c1ccc(C(F)(F)F)cc1,-23%,6
CC1(C)OC(=O)C2=C(C[C@@H](CCc3ccccc3)O[C@H]2CCc2cccc(Cl)c2)O1,-1.0%,3
CC(CC(=O)Nc1ccc2c(c1)c(=O)n(C)n2-c1ccccc1F)c1ccccc1 (stereo unspecified),5.0%,6
COC(=O)/C=C1\OCc2cc(C)ccc21,-1.0%,-1
CCC(CC)C(=O)N(C)c1c(C)nc2c(OCc3cccc(OC)c3)cccn12,-0.7%,-4
Cn1c(Oc2ccncc2)nc2cc(-c3ccsc3)sc2c1=O,-17%,-6
COc1ccc(OC)c(NC(=O)C2(C)CCN2Cc2ccccc2Cl)c1 (stereo unspecified),-4.4%,-17
CCc1nc2ccc(C(=O)Nc3cc(-c4ccccc4)ccc3OC)cn2c1N(C)CCC(C)C,-5.0%,1
OC(Cc1ccccc1)c1ncc(-c2ccc3ccccc3c2)[nH]1 (stereo unspecified),5.0%,-11
CC(C)(C)S(=O)(=O)/C(C#N)=C/c1cccn1S(=O)(=O)c1ccccc1,1.4%,-12
COc1ccc(C(=O)N2CCCCC2c2cc(C(=O)NCc3ccccc3)no2)cc1 (stereo unspecified),-2.2%,-20
O=C(O)C1CCCN(C(=O)/C=C/c2ccccc2)CC1 (stereo unspecified),0.2%,7
CC(C)Nc1nc(NCCOc2ccccc2Cl)c2sccc2n1,-4.8%,-2
COc1cccc(CN2CCC2(C)C(=O)Nc2cccc3cccnc23)c1OC (stereo unspecified),?,-6
COC(=O)[C@H](CC(C)C)NC(=O)CC[C@H]1O[C@@H](n2ccc(=O)[nH]c2=O)[C@H](O)[C@@H]1O,1.8%,34
CCCCCCN1CCN(C2CN(Cc3cn(Cc4ccc(F)cc4)nn3)S(=O)(=O)C2)CC1 (stereo unspecified),-3.9%,2
CC(C)C[C@H]1CN(CCCC[C@H]2CNC(=O)C(=O)N2CCc2ccc(O)cc2)C(=O)C(=O)N1CCc1ccccc1,-0.8%,3
CCOC(=O)N(C)c1c(CC)nc2c(OCc3ccc(OC(F)F)cc3)cccn12,-1.6%,3
COc1ccc([C@@H]2C[C@H]3[C@@H](CN2S(=O)(=O)c2ccccc2)C(=O)C[C@@H](c2ccc(OC)cc2)N3S(=O)(=O)c2ccccc2)cc1,0.3%,-5
C[C@@H](NC(=O)[C@@H]1CCCN1C(=O)[C@@H]1CCCN1C(=O)c1ccccc1)c1ccccc1,-3.5%,-22
CC(C)C[C@H]1CN([C@@H](CC(C)C)CN2CCC[C@H]2CN2C(=O)C(=O)NC[C@@H]2Cc2ccc(O)cc2)C(=O)C(=O)N1CC1CCCCC1,2.1%,1
O=C(c1ccc(-n2cncn2)c2ccoc12)N1CCOCC1,-4.5%,1
O=C(Nc1nnc([C@H]2C[C@H](O)[C@@H](CO)O2)s1)Nc1cccc(Cl)c1Cl,-2.1%,2
COC(=O)c1csc(-c2ccc(CO)o2)n1,-14%,1
CC(C)NC(=O)C1(C)CN(S(C)(=O)=O)CC(=O)N1CCc1ccc(O)cc1 (stereo unspecified),0.1%,9
CC(O)(c1ccc(F)c(F)c1)c1nc(-c2cnc3ccccc3c2)cs1 (stereo unspecified),-19%,-4
Cc1nc(NC(=O)C(C)(C)C)sc1C(=O)Cn1cc(-c2ccc(C(C)(C)C)cc2)nn1,-2.7%,1
O=C(NCc1cccnc1)c1ccc2sc([C@@H]3O[C@H](CO)[C@H](O)[C@H](O)[C@H]3O)nc2c1,-9.7%,4
CCCCOCCCNC(=O)C[C@@H]1C[C@@]2(C(=O)OC)CC(C)(C)CC=C2N(Cc2ccc3c(c2)OCO3)C1=O,2.0%,1
# Following part:
SMILES,ClpP mod,CtBP-E1A inh
COC(=O)N1CCCCC1c1cc(C(=O)NCc2cccnc2)no1 (stereo unspecified),0.2%,4
O=c1[nH]c(=S)[nH]c2c1C(c1ccc(F)cc1)OC(CCC(F)(F)F)C2 (stereo unspecified),-0.8%,5
O=S1(=O)C[C@H](N2CCN(CC3CC3)CC2)[C@@H](COCc2ccccc2)N1,0.6%,1
O=C1NC[C@@H](CCCCN2C[C@H](Cc3ccc(O)cc3)N(CCc3ccccc3)C(=O)C2=O)N(CCc2ccc(O)cc2)C1=O,-0.7%,4
CCCCCNC(=O)C(c1ccncc1)n1c(=O)c(-c2ccco2)nc2ccccc21 (stereo unspecified),4.8%,0
O=C(Nc1ccc2c(c1)OCCO2)c1[nH]c(C(F)(F)F)nc1-c1ccccc1,-1.4%,-24
Cc1ccc(-c2cnc(C(O)c3ccc(Cl)cc3C)[nH]2)cc1 (stereo unspecified),1.0%,-9
Cn1c(=O)c2cc(NC(=S)NC3CCCCC3)ccc2n1-c1ccccc1,5.0%,-8
CCCNC(=O)c1cc(C2CCCCN2S(=O)(=O)c2ccc(C#N)cc2)on1 (stereo unspecified),-1.7%,0
CCCS(=O)(=O)NC(=O)C1(C)CCCN(C(=O)c2nc(C)oc2C)C1 (stereo unspecified),0.4%,3
CC(C)NC(=O)C1(C)CCN1Cc1ccc(-c2ccccc2)cc1 (stereo unspecified),0.6%,4
CC1(C(=O)NS(=O)(=O)c2ccccc2)CCN1C(=O)CC1CCCCC1 (stereo unspecified),1.7%,10
Cc1ccc(F)c(S(=O)(=O)NC(=O)C2(C)CCN2C(=O)c2cccc3ccccc23)c1 (stereo unspecified),1.7%,4
COc1cccc(C(O)c2nc(-c3ccc(N(C)C)cc3)cs2)c1 (stereo unspecified),-4.7%,?
CCN(C)C1CN(Cc2cn(Cc3ccc(Cl)cc3)nn2)S(=O)(=O)C1 (stereo unspecified),1.6%,4
Cc1cc(C)c(CN2CCN(C(=O)CC[C@H]3O[C@@H](n4ccc(=O)[nH]c4=O)[C@H](O)[C@@H]3O)CC2)c(C)c1,-5.0%,-10
CNc1nc(-c2cccc(C(=O)N(C)C)c2)cn2ccnc12,-3.0%,-26
OC[C@H]1O[C@@H](c2nc(-c3ccc(C4OCCO4)cc3)no2)[C@H](O)[C@@H]1O,0.7%,4
CC(=O)Nc1cc(-c2ccc(C(=O)N3CCOCC3)cc2)cn2c(-c3ccc(C(C)=O)cc3)cnc12,-27%,-3
O=C(Nc1ccc2c(c1)OCO2)C1Cc2c(-c3ccc(Cl)cc3)ccnc2O1 (stereo unspecified),-28%,?
COc1ccc(Cl)cc1-c1cc(C(=O)NCc2ccco2)[nH]n1,-3.3%,-17
CC(C)C[C@@H](CN1CCC[C@H]1CN1C(=O)C(=O)NC[C@@H]1Cc1ccccc1)N1C[C@H](Cc2ccccc2)N(CC2CCCCC2)C(=O)C1=O,-0.3%,1
CCCNC(=O)Nc1ccc2c(c1)OC[C@H](C)N(C(=O)C1CCCCC1)C[C@@H](C)[C@H](OC)CN(C)C2=O,1.4%,4
Oc1ccc(Cl)c(CN2CCN(c3ncc(Cc4ccccc4)cn3)CC2)c1,-8.5%,3
CCOC(=O)C[C@@H]1OC[C@H](C)N1S(=O)(=O)c1ccc(C)cc1,1.7%,-6
CCOc1cc(OCC)cc(C(=O)N2CCC[C@H]2C(=O)N2CCC[C@H]2C(=O)NCc2ccncc2)c1,1.9%,7
COc1cccc(C(c2nnnn2C(C)(C)C)N2CCN(C/C=C/c3ccccc3)CC2)c1OC (stereo unspecified),2.6%,-28

# High-throughput results as filed in PubChem.

# Only part of the results is shown. The share of hits here may be higher or lower than overall.
